Source: PubChem (National Center for Advancing Translational Sciences (NCATS))
Rango release inh: qHTS Assay for Inhibitors of RanGTP induced Rango (Ran-regulated importin-beta cargo) - Importin beta complex dissociation; AID 540253, 2011; Biochemical FRET Rango-importin beta, RanGTP-induced dissociation; Potency, µM (top dose mostly 46.1 µM), for inactives: at the highest dose activity change, negative = inhibition; hit rate 0.071% among 340,000; active means falling FRET ratio curve, often poorly fitted, with flat reads before Ran was added; inconclusive means other falling curves, or compound fluorescence or quenching; inactive means flat or rising ratio curve;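 also: potency is read from the fitted curve at half-maximal effect; % of control where 0% means no effect; nearly all actives have a fitted effect of over 45% in size; -100% = wells without RanGTP and RCC1; the record marks most hits as doubtful in a second field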
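Rango/importin beta premix (0.1/0.25 uM final), PBS + 1 mM DTT + 0.02% Tween-20 + 0.1% BSA; cpd 5 min RT; FRET pre-read; + RanGTP-RCC1 (0.6 uM Ran, 2 mM GTP, 0.2 uM RCC1); 45 min RT; FRET post-read, ex 430, em 486/530 nm.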
miR-21 reporter: qHTS Assay for Modulators of miRNAs and/orActivators of miR-21 | HeLa miR-21 FLuc reporter, luciferase, 48 h | Potency, µM (doses to about 38.3 µM), inactives show at the highest dose reporter change, positive = more light | 340,000 tested, under 10 active | AID 2288, 2010; active = well fitted rising curve with a large enough effect; inconclusive = small, poorly fitted or top-dose-only effect; inactive = no such curve, though single readings can be large or run the other way;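 also: % of control where 0% means no effect; miR-21 action dims this reporter so a rising signal means less miR-21 action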
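Compounds were titrated across several concentrations (up to approximately 40 uM) and incubated 48 hours with HeLa miR-21-FLuc reporter cells (miR-21 target sequence downstream of FLuc, endogenous miR-21). Readout was firefly luciferase luminescence after lytic detection reagent.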
Rango complex inh: qHTS Assay for Inhibitors of Rango (Ran-regulated importin-beta cargo) - Importin beta complex formation. Rango CFP/YFP FRET sensor + importin beta, 45 min. Potency, µM (titrated, usually from 92.2 µM), for the others: at the highest dose inhibition of complex formation. hit rate 0.031% among 340,000; active = rising FRET ratio curve, often small or poorly fitted; inconclusive = mostly compound fluorescence or quenching in the first reads; inactive = flat curves in all reads;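 also: potency is read from the fitted curve at half-maximal effect; 0% = DMSO wells and 100% = buffer wells lacking importin beta; nearly all actives have a fitted effect of over 15% in size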
Target sequence (Q14974 whole entry, looked up): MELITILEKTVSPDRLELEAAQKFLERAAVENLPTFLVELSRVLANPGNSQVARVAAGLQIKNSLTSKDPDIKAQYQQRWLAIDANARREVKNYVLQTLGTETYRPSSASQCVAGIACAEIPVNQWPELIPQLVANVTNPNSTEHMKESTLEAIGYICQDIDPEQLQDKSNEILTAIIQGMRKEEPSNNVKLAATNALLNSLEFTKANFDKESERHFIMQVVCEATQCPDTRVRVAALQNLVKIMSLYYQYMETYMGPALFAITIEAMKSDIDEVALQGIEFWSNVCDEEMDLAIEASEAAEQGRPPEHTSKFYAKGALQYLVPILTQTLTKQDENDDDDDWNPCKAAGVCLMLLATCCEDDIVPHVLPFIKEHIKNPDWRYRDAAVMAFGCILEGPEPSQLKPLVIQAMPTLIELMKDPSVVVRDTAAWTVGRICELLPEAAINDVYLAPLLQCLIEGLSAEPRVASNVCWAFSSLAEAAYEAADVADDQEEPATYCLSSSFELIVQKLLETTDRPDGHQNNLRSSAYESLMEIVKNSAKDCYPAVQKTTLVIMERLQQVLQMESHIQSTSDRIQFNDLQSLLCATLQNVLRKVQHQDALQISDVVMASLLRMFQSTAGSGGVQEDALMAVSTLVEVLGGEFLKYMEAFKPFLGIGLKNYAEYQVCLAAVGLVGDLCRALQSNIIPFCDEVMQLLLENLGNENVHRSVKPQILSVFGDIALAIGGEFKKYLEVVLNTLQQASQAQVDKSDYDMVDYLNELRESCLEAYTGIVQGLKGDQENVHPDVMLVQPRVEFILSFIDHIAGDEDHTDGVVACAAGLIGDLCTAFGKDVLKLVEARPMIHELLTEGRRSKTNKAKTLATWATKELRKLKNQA
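Inhibition scored from the CFP 486 nm/YFP 530 nm FRET ratio 45 min after adding 0.125 microM importin beta to 50 nM Rango biosensor preincubated 5 min with compound (room temperature, PBS with DTT, Tween-20, BSA). No-importin wells as positive control.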
GLA inh pH 4.5: qHTS Assay for Inhibitors of Human alpha-Galactosidase at pH 4.5. 230,000 tested, under 10 active. purified enzyme, 4-MU-alpha-Gal fluorescence, pH 4.5. activity change, negative = inhibition, % at 105 µM; inconclusive = small, poorly fitted or top-dose-only inhibition, or a rising curve; inactive = flat fitted curve, though single readings scatter; no compound was filed as active;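 also: 0% = full activity with enzyme and -100% = basal without enzyme; dose as in the result columns while the protocol names 77 µM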
Numbers without * were called inactive; ? = inconclusive; . = not tested or not shown. This is a subset; rates above refer to the full screens.

SMILES | Rango release inh | miR-21 reporter | Rango complex inh | GLA inh pH 4.5
OCC1OC(n2cnc3c(=S)nc[nH]c32)CC1O (stereo unspecified) | 3% | . | -2.7% | .
CCc1cc2cc(C)ccc2nc1SCC(=O)N1CC(=O)Nc2ccccc21 | 1% | 0% | -0.3% | .
Cc1ccc(NC(=O)C2CCC(=O)N2)cc1C (stereo unspecified) | -2% | -3% | 2.9% | -1
O=[N+]([O-])c1ccc2c(c1Nc1ccccc1Cl)=NC1(CCCCC1)N=2 | 18% | -13% | -4.8% | -2
c1ccc(Cc2noc(CN3CCC(CN4CCOCC4)CC3)n2)cc1 | 1% | -2% | 0.8% | 2
Nc1cc(S(=O)(=O)Nc2ccc(Cl)cc2)ccc1N1CCOCC1 | -8% | 19% | 9.8% | 0
CC(=O)N1CCN(C(=O)c2ccc(C(=O)c3ccccc3)cc2)CC1 | -1% | 3% | -0.4% | .
Cc1ccc(S(=O)(=O)N2CCCN(C(=O)c3ccc(-n4cccn4)cc3)CC2)cc1 | 23% | . | -1.8% | .
CC(=O)NC(=S)Nc1ccc2oc(=O)ccc2c1 | 9% | -5% | -1.6% | -4
CC(C)CC(NC(=O)c1ccc(Cl)cc1)C(=O)OCc1cc([N+](=O)[O-])cc2c1OCOC2 (stereo unspecified) | 13% | -11% | 3.9% | 0
Cc1c(N=Cc2ccc[nH]2)c(=O)n(-c2ccccc2)n1C | ? | 1% | ? | 0
C=CCc1ccc(OCCn2cccc2C=O)c(OC)c1 | 15% | -44% | 5.1% | 11
COc1cccc(OC)c1-c1nn(-c2ncc(C(F)(F)F)cc2Cl)c(=O)o1 | 55% | -5% | 3.8% | 2
CC(C)C(=O)Nc1ccc(NC(=O)c2ccccn2)cn1 | 3% | 13% | 1.9% | 7
O=[N+]([O-])c1ccc(CN2CCN(c3ccccc3Cl)CC2)o1 | -11% | 1% | ? | .
CC(C)N(N=Nc1ccc([N+](=O)[O-])cc1)C(C)C | -1% | -6% | 2.9% | -13
COc1ccccc1C(=O)Oc1ccc(C(C)(C)C)cc1 | 9% | -5% | -0.8% | 7
Cc1ccc(S(=O)(=O)N2CCN(C)CC2)cc1 | ? | -1% | -1.8% | .
COc1ccc(CN2CCCC(CO)(Cc3ccc(F)cc3F)C2)cc1 (stereo unspecified) | -1% | -7% | -0.6% | .
CC1=CCC2C(=O)N(c3cccc(C(=O)Nc4ccccc4Cl)c3)C(=O)C2C1 (stereo unspecified) | -12% | -4% | 0.4% | .
COc1ccccc1NC(=S)N1C2CCC1CC(NC(=O)NC13CC4CC(CC(C4)C1)C3)C2 (stereo unspecified) | 1% | -8% | -2.2% | -19
Cc1cc(-c2ccc(C(C)C)c(S(=O)(=O)NCc3ccco3)c2)on1 | 3% | -5% | 1.3% | .
CC(=O)c1c(C)[nH]c(C(=O)Nc2cc(C)cc(C)c2)c1C | 11% | -13% | -0.5% | -5
S=c1[nH]nc(Cc2c[nH]c3ccccc23)o1 | 1% | 5% | 0.6% | 7
CCn1nnnc1NC(=O)c1cc(OC)c(OC)c(OC)c1 | -11% | -2% | 3.3% | 10
Cc1cc(C)cc(N(CC(=O)NCCSc2ccccn2)S(=O)(=O)c2ccccc2)c1 | 3% | 6% | -3.4% | 3
Cc1nc(S/C(=C\c2ccc(-c3ccc(C(=O)O)c(Cl)c3)o2)C(=O)O)n[nH]1 | ? | -3% | ? | -3
COc1ccccc1CN(C)C(=O)COC(=O)c1cc(C)oc1C | -13% | . | ? | .
COc1ccc(NC(=S)N2CCN(C)CC2)cc1 | -7% | . | -1.3% | .
CCC(=O)N1CCc2cc(S(=O)(=O)NCCC(=O)NC3CCCc4ccccc43)ccc21 (stereo unspecified) | -11% | -8% | 0.3% | 1
COc1ccc(CCN(C(=O)Cn2nnc3ccccc32)C(C(=O)NCC2CCCO2)c2ccncc2)cc1OC (stereo unspecified) | -9% | 0% | 3.4% | 2
Cc1ccccc1C(=O)NC(=S)Nc1ccccc1N1CCCC1 | -3% | -10% | -0.3% | 4
Cc1ccc(-n2ncc(C#N)c2/N=C/N2CCN(C)CC2)cc1 | -4% | -6% | 0.3% | 0
COc1cc(OC)cc(C(=O)Nc2cccnc2)c1 | -3% | -5% | -3.6% | 2
NC(=O)C1CC(=O)N(c2ccc(OCc3ccc(Cl)cc3Cl)cc2)C1 (stereo unspecified) | -2% | -26% | -0.5% | 10
Cc1ccc(C)c(S(=O)(=O)Nc2ccc(O)cc2)c1 | 5% | -3% | 0.1% | -2
COc1ccccc1NC(=O)C1CCN(c2ncccn2)CC1 | 27% | -4% | -3.5% | -6
CCCCC(=O)Nc1nnc(-c2ccco2)o1 | -5% | 0% | 3.2% | 8
CCOC(=O)c1ccc(N=c2sc(C(=O)OC)cc(=O)n2C2CC2)cc1 | 1% | -3% | -0.5% | 6
CCOC(=O)Cn1c(CN2CCc3ccccc3C2)nc2c1c(=O)n(C)c(=O)n2C | 4% | 1% | 0.4% | -1
COc1ccc(CN2CCN(C(=O)Cn3ncn4cccc4c3=O)CC2)c(OC)c1OC | -2% | 6% | -0.3% | .
CCOc1cc(CNCc2ccncc2)cc(Br)c1OCc1ccc(F)cc1 | -8% | 25% | 2.7% | -15
COc1ccc(C(=O)OCC(=O)N2CCN(S(=O)(=O)c3ccc(C)cc3)CC2)cc1[N+](=O)[O-] | 12% | . | 1.6% | .
CCN(CC)C(=O)c1cccc(NC(=O)C2CCN(C(=O)c3cccs3)CC2)c1 | -2% | . | -0.1% | .
CCOC(=O)c1sc(N=NC2=C(O)CC(C)(C)CC2=O)c(C(=O)OCC)c1C | 2% | 0% | 0.1% | -4
O=C(O)CSC1CC(=O)N(c2cccc(Cl)c2)C1=O (stereo unspecified) | -11% | 0% | 0.0% | 4
CCOc1ccc(CCNC(=O)COC(=O)c2cccnc2Cl)cc1OCC | 3% | . | 0.1% | .
CN(C)S(=O)(=O)c1ccc(C(=O)NCc2ccccc2)cc1 | -9% | -3% | 4.3% | 3
CCOc1ccccc1NC(=O)NC1CC2CCCC(C1)N2Cc1nnnn1CCc1ccccc1 (stereo unspecified) | 10% | -1% | -1.4% | -11
Cc1nn(-c2ccccc2)c(C)c1C(=O)NCc1ccc(F)cc1 | -23% | -11% | -0.8% | 1
O=C(c1ccco1)N1CCN(C(=O)N2CCOCC2)CC1 | -6% | -3% | 1.2% | 5
O=C(O)CCC(=O)Nc1sc2c(c1C(=O)Nc1cccc3ccccc13)CCCCC2 | -17% | -31% | 1.4% | 4
CCn1c(C(=O)N2CCC(C(=O)NCc3ccc(OC)cc3)CC2)cc2sccc21 | 16% | 0% | -2.1% | .
CCOc1cc(S(=O)(=O)N2CCC(C(N)=O)CC2)ccc1F | -19% | 0% | 1.7% | 10
O=C(c1cc(-c2ccncc2)nc2ccc(Cl)cc12)N1CCN(C(=O)C2CCCO2)CC1 (stereo unspecified) | -6% | 10% | 1.4% | -3
c1ccc(-c2ccc(-c3nc(-c4cccnc4)no3)cc2)cc1 | -12% | -50% | 0.7% | -7
COc1ccc(C(C(=O)NCC2CCCO2)N(C(=O)CNC(=O)c2ccco2)c2cc(C)ccc2C)cc1OC (stereo unspecified) | 5% | -4% | 4.8% | .
O=C1C=C(c2cccnc2)CCC1 | 15% | . | 0.2% | .
C=CCNc1ccc(F)c(F)c1N1CCCCCC1=O | -12% | -5% | -7.3% | 16
CC(C)(C)NC(=O)C(c1ccncc1)N(Cc1cccs1)C(=O)Cn1nnc(-c2ccc(F)cc2)n1 (stereo unspecified) | -10% | -30% | 0.4% | -17

Entries from the list above containing a tert-butyl group, in the order listed:
SMILES | Rango release inh | miR-21 reporter | Rango complex inh | GLA inh pH 4.5
COc1ccccc1C(=O)Oc1ccc(C(C)(C)C)cc1 | 9% | -5% | -0.8% | 7
CC(C)(C)NC(=O)C(c1ccncc1)N(Cc1cccs1)C(=O)Cn1nnc(-c2ccc(F)cc2)n1 (stereo unspecified) | -10% | -30% | 0.4% | -17

More compounds follow:
SMILES | Rango release inh | miR-21 reporter | Rango complex inh | GLA inh pH 4.5
COc1ccc(NC(=O)CN(C)C(=O)CCSc2ccc(F)cc2)cc1 | 4% | . | -1.2% | .
CSCC[C@H](NC(=O)NCCc1ccc(F)cc1)C(=O)O | 13% | -2% | -0.6% | 2
O=C(NN1CCOCC1)NC12CC3CC(CC(C3)C1)C2 | 28% | 4% | 3.4% | -8
OC1(c2ccc(Br)cc2)CCN(Cc2cccc(Br)c2)CC1 | 10% | -3% | -5.2% | .
O=C(NC1CCSC1=O)c1ccc(Cl)cc1 (stereo unspecified) | -9% | -4% | -0.3% | -2
Cc1ccc(CN2CCCNC2=O)cc1 | -4% | -2% | 1.8% | 2
Cc1ccc(N2CC(C(=O)Nc3nccs3)CC2=O)cc1Cl (stereo unspecified) | 0% | 16% | 0.5% | 7
COc1cc2c(cc1OC)C1(C)N(CC2)C(C(C)=O)=NN1c1ccc(Cl)cc1 (stereo unspecified) | ? | 0% | ? | -17
COc1ccccc1N1C(=O)C2C(C(=O)c3ccccc3)=NN(c3ccc(Br)cc3)C2C1=O (stereo unspecified) | ? | 1% | ? | ?
O=C1CCCC2(O)C1C(c1cccc(Br)c1)NC(=O)N2Cc1ccccc1 (stereo unspecified) | 11% | 0% | -0.9% | -1
CCCCNC(=O)C1C2C=CC(C2)C1C(=O)O (stereo unspecified) | 1% | 7% | 0.8% | -2
COc1cccc(NC(=O)C2C3C=CC4(O3)C2C(=O)N(CCCN2CCCC(C)C2)C4C(=O)NC2CCCCC2C)c1 (stereo unspecified) | 28% | -4% | 1.0% | .

In the list so far, 14 have a Cl atom:
SMILES | Rango release inh | miR-21 reporter | Rango complex inh | GLA inh pH 4.5
O=[N+]([O-])c1ccc2c(c1Nc1ccccc1Cl)=NC1(CCCCC1)N=2 | 18% | -13% | -4.8% | -2
Nc1cc(S(=O)(=O)Nc2ccc(Cl)cc2)ccc1N1CCOCC1 | -8% | 19% | 9.8% | 0
CC(C)CC(NC(=O)c1ccc(Cl)cc1)C(=O)OCc1cc([N+](=O)[O-])cc2c1OCOC2 (stereo unspecified) | 13% | -11% | 3.9% | 0
COc1cccc(OC)c1-c1nn(-c2ncc(C(F)(F)F)cc2Cl)c(=O)o1 | 55% | -5% | 3.8% | 2
O=[N+]([O-])c1ccc(CN2CCN(c3ccccc3Cl)CC2)o1 | -11% | 1% | ? | .
CC1=CCC2C(=O)N(c3cccc(C(=O)Nc4ccccc4Cl)c3)C(=O)C2C1 (stereo unspecified) | -12% | -4% | 0.4% | .
Cc1nc(S/C(=C\c2ccc(-c3ccc(C(=O)O)c(Cl)c3)o2)C(=O)O)n[nH]1 | ? | -3% | ? | -3
NC(=O)C1CC(=O)N(c2ccc(OCc3ccc(Cl)cc3Cl)cc2)C1 (stereo unspecified) | -2% | -26% | -0.5% | 10
O=C(O)CSC1CC(=O)N(c2cccc(Cl)c2)C1=O (stereo unspecified) | -11% | 0% | 0.0% | 4
CCOc1ccc(CCNC(=O)COC(=O)c2cccnc2Cl)cc1OCC | 3% | . | 0.1% | .
O=C(c1cc(-c2ccncc2)nc2ccc(Cl)cc12)N1CCN(C(=O)C2CCCO2)CC1 (stereo unspecified) | -6% | 10% | 1.4% | -3
O=C(NC1CCSC1=O)c1ccc(Cl)cc1 (stereo unspecified) | -9% | -4% | -0.3% | -2
Cc1ccc(N2CC(C(=O)Nc3nccs3)CC2=O)cc1Cl (stereo unspecified) | 0% | 16% | 0.5% | 7
COc1cc2c(cc1OC)C1(C)N(CC2)C(C(C)=O)=NN1c1ccc(Cl)cc1 (stereo unspecified) | ? | 0% | ? | -17
